# Fam108B inh = blocks mouse Fam108B hydrolase in RBBP9 counter-screen; recombinant Fam108B, FP-Rh probe fluorescence polarization; inhibition, % at 9.51 µM; actives 0.33% (n = 300,000);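 active means inhibition above the screen mean inhibition plus 3 SD, computed separately per campaign, cut at about 18% in these data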;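 further: inhibitors lower polarization as less probe binds the enzyme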
# MEX-5 binding = C. elegans MEX-5 TCR-2 RNA binding activity. MEX-5/FITC-TCR2 RNA binding, fluorescence polarization; stronger effect = lower value. activity score (negative = inhibition of binding), % at 10 µM. actives 0.38% (n = 300,000);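 active means inhibition past about -25% in most replicates, and total fluorescence under double the plate's negative control median, limit read from the data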;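 further: 0% = DMSO and -100% = 5 µM competing unlabeled TCR2 RNA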
# GLD-1 TGE inh = GLD-1-TGE RNA interaction inhibition (C. elegans) | Q17339 | purified GLD-1 + fluorescein TGE RNA, fluorescence polarization | inhibition, % at 5.96 µM | actives 0.44% (n = 320,000) | AID 2280;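 active means percent inhibition above a per-plate cutoff, the plate mean of test compounds plus 3 SD, cut at about 30% in these data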;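 further: 0% = DMSO wells with GLD-1 and probe and 100% = wells lacking GLD-1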
# Target sequence (Q17339 whole entry, looked up): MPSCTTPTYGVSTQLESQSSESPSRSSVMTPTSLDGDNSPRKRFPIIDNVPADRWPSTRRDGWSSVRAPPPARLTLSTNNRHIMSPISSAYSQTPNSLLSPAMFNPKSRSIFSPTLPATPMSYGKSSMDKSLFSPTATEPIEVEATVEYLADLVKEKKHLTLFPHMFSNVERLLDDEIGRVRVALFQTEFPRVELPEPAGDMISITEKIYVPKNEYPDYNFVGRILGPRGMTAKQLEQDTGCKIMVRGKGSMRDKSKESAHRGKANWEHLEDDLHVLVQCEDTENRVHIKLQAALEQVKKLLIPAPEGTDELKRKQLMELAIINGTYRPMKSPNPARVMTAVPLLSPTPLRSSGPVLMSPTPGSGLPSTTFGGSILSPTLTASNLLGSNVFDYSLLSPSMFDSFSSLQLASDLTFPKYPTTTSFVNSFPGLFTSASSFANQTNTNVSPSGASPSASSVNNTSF
# PME-1 primary = PME-1 (human) inhibition. Q9Y570. actives 0.53% (n = 320,000). AID 2130. inhibition, % at 5.9 µM. recombinant PME-1, FP-Rh probe fluorescence polarization;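 active means inhibition above the campaign mean of all compounds plus 3 SD, cut at about 26% in these data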;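 further: competitive labeling of PME-1 active site by serine hydrolase directed probe; 0% = PME-1 with DMSO and 100% = wells lacking PME-1 enzyme; inhibitors block probe labeling so polarization falls and inhibition rises; many of its hits are not listed in these tables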
# PAFAH1B2 FP inh = inhibitors of human PAFAH1B2 | actives 1.2% (n = 340,000) | recombinant PAFAH1B2, FP-rhodamine activity probe, fluorescence polarization | P68402 | inhibition, % at 3.39 µM;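 active means inhibition above the mean of all tested compounds plus 3 SD, cut at about 24% in these data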;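 further: 0% = enzyme with DMSO and 100% = wells lacking PAFAH1B2; many of its hits are not listed in these tables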
# Active calls of the source: *; . = no result given; & = joins results of further samples.
SMILES,Fam108B inh,MEX-5 binding,GLD-1 TGE inh,PME-1 primary,PAFAH1B2 FP inh
CCOc1cc(C=O)ccc1O,.,.,5.4,.,0.6
COc1ccc(CN2CCNCC2)c(OC)c1OC,0.7&0.5,3.2,-2.0&7.6,0.7&1.9,1.8&1.5
O=C(Nc1ccc(Cl)cc1C(=O)c1ccccc1)c1ccco1,5.6,0.0,-8.9,3.5,-1.2
C[C@@H]1O[C@@H](O[C@H]2C[C@@H](O)[C@]3(CO)[C@H]4[C@H](O)C[C@]5(C)[C@@H](C6=CC(=O)OC6)CC[C@]5(O)[C@@H]4CC[C@]3(O)C2)[C@H](O)[C@H](O)[C@H]1O,-1.3&-2.1,6.5,2.0&3.4,1.3&-2.9,-6.7
CN1CCCN(C(=O)COc2ccccc2)CC1,1.5,-1.0,1.0,-4.0,0.9
OCC(Cl)CCl (stereo not drawn),.,.,-0.4,-4.9,6.7
OCCOCCO,-1.3,.,-2.0,3.9,-4.3
Cc1ccc(C2C(S(C)(=O)=O)=C(O)C(=O)N2c2ccccc2)cc1 (stereo not drawn) (tested in a mixture with another compound),-4.5,0.8,4.8,-1.3,8.4
C[C@]12CC[C@@H](O)C[C@H]1CC[C@@H]1[C@@H]2CC[C@]2(C)C(=O)CC[C@@H]12,-3.7,-0.4,0.0,-6.5,2.6
Cc1ccc(N)c(N)c1,.,.,2.5,-2.7,3.0
Oc1ccc(Cl)cc1,.,.,2.8,.,2.6
O=C(CCCN1CCC2(CC1)C(=O)NCN2c1ccccc1)c1ccc(F)cc1,-0.6,1.4,-1.7,-2.3,6.8
C[C@H]1CCCC(=O)CCC/C=C/c2cc(O)cc(O)c2C(=O)O1,2.4,-1.2,7.8,-0.3,2.9
OCC1CO1 (stereo not drawn),.,.,1.1,1.9,-1.6
N[C@@H]1CCCC[C@H]1N.O=C(O)C(=O)O.[Pt],1.1,0.6,1.6,2.5,.

# Compounds from the list above containing a halogen:
SMILES,Fam108B inh,MEX-5 binding,GLD-1 TGE inh,PME-1 primary,PAFAH1B2 FP inh
O=C(Nc1ccc(Cl)cc1C(=O)c1ccccc1)c1ccco1,5.6,0.0,-8.9,3.5,-1.2
OCC(Cl)CCl (stereo not drawn),.,.,-0.4,-4.9,6.7
Oc1ccc(Cl)cc1,.,.,2.8,.,2.6
O=C(CCCN1CCC2(CC1)C(=O)NCN2c1ccccc1)c1ccc(F)cc1,-0.6,1.4,-1.7,-2.3,6.8

# A second format for some results above:
C[C@@H]1O[C@@H](O[C@H]2C[C@@H](O)[C@]3(CO)[C@H]4[C@H](O)C[C@]5(C)[C@@H](C6=CC(=O)OC6)CC[C@]5(O)[C@@H]4CC[C@]3(O)C2)[C@H](O)[C@H](O)[C@H]1O
  Fam108B inh: -1.3&-2.1
  MEX-5 binding: 6.5
  GLD-1 TGE inh: 2.0&3.4
  PME-1 primary: 1.3&-2.9
  PAFAH1B2 FP inh: -6.7

CN1CCCN(C(=O)COc2ccccc2)CC1
  Fam108B inh: 1.5
  MEX-5 binding: -1.0
  GLD-1 TGE inh: 1.0
  PME-1 primary: -4.0
  PAFAH1B2 FP inh: 0.9

# Quoted from the entries so far (four entries):
SMILES,Fam108B inh,MEX-5 binding,GLD-1 TGE inh,PME-1 primary,PAFAH1B2 FP inh
O=C(CCCN1CCC2(CC1)C(=O)NCN2c1ccccc1)c1ccc(F)cc1,-0.6,1.4,-1.7,-2.3,6.8
C[C@H]1CCCC(=O)CCC/C=C/c2cc(O)cc(O)c2C(=O)O1,2.4,-1.2,7.8,-0.3,2.9
OCC1CO1 (stereo not drawn),.,.,1.1,1.9,-1.6
N[C@@H]1CCCC[C@H]1N.O=C(O)C(=O)O.[Pt],1.1,0.6,1.6,2.5,.

# Profiles, quoted from the list.
# `CN1CCCN(C(=O)COc2ccccc2)CC1` as listed: Fam108B inh = 1.5; MEX-5 binding = -1.0; GLD-1 TGE inh = 1.0; PME-1 primary = -4.0; PAFAH1B2 FP inh = 0.9
# `Oc1ccc(Cl)cc1` as listed: Fam108B inh = .; MEX-5 binding = .; GLD-1 TGE inh = 2.8; PME-1 primary = .; PAFAH1B2 FP inh = 2.6

# New compounds follow
SMILES,Fam108B inh,MEX-5 binding,GLD-1 TGE inh,PME-1 primary,PAFAH1B2 FP inh
CCC(=O)OC(Cc1ccccc1)(c1ccccc1)C(C)CN(C)C (stereo not drawn),.,.,.,.,5.4
O=C(Cc1ccccc1)OCc1ccccc1,.,.,6.4,-0.4,-0.2
CN1CCN(C(=O)COc2ccc(S(=O)(=O)Nc3ccc(F)cc3)cc2)CC1,3.2,0.5,1.5,-3.2,4.7
C=C(Cl)CSC(=S)N(CC)CC,.,.,-5.7,-4.3,-3.0
COc1ccc(C(=O)c2nc3ccccc3n2C(C)C)cc1,3.8,0.0,-3.6,3.9,-0.2
O=C(COc1ccc(Br)cc1)N1CCN(C2CCCC2)CC1,1.8,0.1,4.0,-3.1,2.7
O=[N+]([O-])c1cccc(CCl)c1,.,.,1.8,-5.0,-3.1
NCC1(CC(=O)O)CCCCC1,3.8,.,8.3,-1.1,.

# Source: PubChem

# Only part of the results is shown. The share of hits here may be higher or lower than overall.
